Compound activity (PubChem)
Measles inh – inhibitors of measles virus growth in infected cells; infected Vero cells, GFP fluorescence, 64 h; active compounds read low; z-score (concentration not given with the values); 0.1% of 33,000 active; AID 745;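 active = z-score under -3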;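 note: score is relative to mean and SD of the compound wells of a plate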
* marks the source's active call; other numbers are inactive results.

Preview:
1) CC1CCC(C(C)C)C(OP(N)(=O)c2ccccc2)C1 (configuration not stated)
  Measles inh: 0.01
2) CN1CCN(c2nc3ccc([N+](=O)[O-])cc3s2)CC1
  Measles inh: 1
3) O=[N+]([O-])c1ccc(NCCc2ccccc2)c2ncccc12
  Measles inh: 0.5
4) CCCn1c(C(=O)c2ccccc2OC)nc2ccccc21
  Measles inh: 0.11
5) O=C(Oc1cccc2cccnc12)c1cccc(S(=O)(=O)N2CCOCC2)c1
  Measles inh: -0.4
6) O=[N+]([O-])c1ccc(NC23CC4CC(CC(C4)C2)C3)c2ncccc12
  Measles inh: -0.39
7) Cc1cccc(N2C(=O)CC(=O)NC2=O)c1
  Measles inh: -0.42
8) Cc1c(Cl)cccc1-n1c(C=Cc2ccc([N+](=O)[O-])cc2)nc2ccccc2c1=O
  Measles inh: -0.19
9) CN(C)c1ccc(C=Cc2nc3ccccc3c(=O)n2-c2ccc(Br)cc2)cc1
  Measles inh: 8.6
10) COc1cc(-n2c(=O)[nH]c3ccccc3c2=O)cc(OC)c1OC
  Measles inh: -0.91
11) O=c1c2ccccc2nc(C=Cc2ccccc2)n1-c1cccc([N+](=O)[O-])c1
  Measles inh: -1.1
12) CCC(C)NC(=O)CN1C(=O)CN=C(c2ccccc2)c2ccccc21 (configuration not stated)
  Measles inh: -0.71
13) O=C(Nc1ccncc1)c1c(O)c2ccccc2n(Cc2ccccc2)c1=O
  Measles inh: -1.3
14) CCCCOC(=O)c1c(N)n(Cc2ccccc2)c2nc3ccccc3nc12
  Measles inh: 2.2
15) C(#CCN1CCCCC1)COCC=Cc1ccccc1
  Measles inh: -0.41
16) Cc1ccc(-c2nc3ccccc3c(=O)n2-c2cc(C)ccn2)cc1
  Measles inh: -0.28
17) CCc1ccccc1NC(=O)CN1C(=O)C(CC(C)C)N=C(c2ccccc2)c2ccccc21 (configuration not stated)
  Measles inh: 0.04
18) Cc1ccc(NC(=O)CN2C(=O)C(C)N=C(c3ccccc3)c3cc(Cl)ccc32)cc1C (configuration not stated)
  Measles inh: -1.5
19) COCc1cc(C2SCC(=O)Nc3c2c(C)nn3-c2ccccc2)ccc1OC (configuration not stated)
  Measles inh: -1.3
20) CNc1ccc(Br)cc1C(=O)c1ccc(Cl)cc1
  Measles inh: -1.3
21) CCCC12CNCC(C)(CNC1)C2=O
  Measles inh: -0.68
22) COC(=O)C1=C(N)Oc2c(c(=O)oc3ccccc23)C12C(=O)N(C)c1ccccc12 (configuration not stated)
  Measles inh: -0.64
23) COc1ccc2[nH]c(C)c(CCNCc3ccc(C#N)cc3)c2c1
  Measles inh: 0.12
24) CCOC(=O)Cn1cc([N+](=O)[O-])nc1[N+](=O)[O-]
  Measles inh: -0.31

This part in full (from the top)
1) CC1CCC(C(C)C)C(OP(N)(=O)c2ccccc2)C1 (configuration not stated)
  Measles inh: 0.01
2) CN1CCN(c2nc3ccc([N+](=O)[O-])cc3s2)CC1
  Measles inh: 1
3) O=[N+]([O-])c1ccc(NCCc2ccccc2)c2ncccc12
  Measles inh: 0.5
4) CCCn1c(C(=O)c2ccccc2OC)nc2ccccc21
  Measles inh: 0.11
5) O=C(Oc1cccc2cccnc12)c1cccc(S(=O)(=O)N2CCOCC2)c1
  Measles inh: -0.4
6) O=[N+]([O-])c1ccc(NC23CC4CC(CC(C4)C2)C3)c2ncccc12
  Measles inh: -0.39
7) Cc1cccc(N2C(=O)CC(=O)NC2=O)c1
  Measles inh: -0.42
8) Cc1c(Cl)cccc1-n1c(C=Cc2ccc([N+](=O)[O-])cc2)nc2ccccc2c1=O
  Measles inh: -0.19
9) CN(C)c1ccc(C=Cc2nc3ccccc3c(=O)n2-c2ccc(Br)cc2)cc1
  Measles inh: 8.6
10) COc1cc(-n2c(=O)[nH]c3ccccc3c2=O)cc(OC)c1OC
  Measles inh: -0.91
11) O=c1c2ccccc2nc(C=Cc2ccccc2)n1-c1cccc([N+](=O)[O-])c1
  Measles inh: -1.1
12) CCC(C)NC(=O)CN1C(=O)CN=C(c2ccccc2)c2ccccc21 (configuration not stated)
  Measles inh: -0.71
13) O=C(Nc1ccncc1)c1c(O)c2ccccc2n(Cc2ccccc2)c1=O
  Measles inh: -1.3
14) CCCCOC(=O)c1c(N)n(Cc2ccccc2)c2nc3ccccc3nc12
  Measles inh: 2.2
15) C(#CCN1CCCCC1)COCC=Cc1ccccc1
  Measles inh: -0.41

16) Cc1ccc(-c2nc3ccccc3c(=O)n2-c2cc(C)ccn2)cc1
  Measles inh: -0.28
17) CCc1ccccc1NC(=O)CN1C(=O)C(CC(C)C)N=C(c2ccccc2)c2ccccc21 (configuration not stated)
  Measles inh: 0.04
18) Cc1ccc(NC(=O)CN2C(=O)C(C)N=C(c3ccccc3)c3cc(Cl)ccc32)cc1C (configuration not stated)
  Measles inh: -1.5
19) COCc1cc(C2SCC(=O)Nc3c2c(C)nn3-c2ccccc2)ccc1OC (configuration not stated)
  Measles inh: -1.3
20) CNc1ccc(Br)cc1C(=O)c1ccc(Cl)cc1
  Measles inh: -1.3
21) CCCC12CNCC(C)(CNC1)C2=O
  Measles inh: -0.68
22) COC(=O)C1=C(N)Oc2c(c(=O)oc3ccccc23)C12C(=O)N(C)c1ccccc12 (configuration not stated)
  Measles inh: -0.64
23) COc1ccc2[nH]c(C)c(CCNCc3ccc(C#N)cc3)c2c1
  Measles inh: 0.12
24) CCOC(=O)Cn1cc([N+](=O)[O-])nc1[N+](=O)[O-]
  Measles inh: -0.31
25) C=CCSc1nc2ccccc2c(=O)n1-c1cccc(C)c1
  Measles inh: 0.13
26) COc1ccc(OC)c(NC(=O)CN2C(=O)CN=C(c3ccccc3)c3cc(Cl)ccc32)c1
  Measles inh: 0.32
27) O=C(c1cn(Cc2ccc(F)cc2)c2ccccc12)C(F)(F)F
  Measles inh: -0.46
28) CCCCn1c(=O)c(C(=O)Nc2cc(C)ccc2C)c(O)c2ccccc21
  Measles inh: -1.4
29) COc1ccc(CNCCc2ccc(F)cc2)cc1OC
  Measles inh: 0.16
30) CCOC(=O)c1c(C)n(C2CCCCC2)c2ccc(OC(C)=O)cc12
  Measles inh: 0.05

31) Cc1ccccc1NC1=NCC(C)S1 (configuration not stated)
  Measles inh: -0.09
32) COc1cc(C(=O)Nc2ccc([N+](=O)[O-])cc2C(=O)c2ccccc2)cc(OC)c1OC
  Measles inh: 1.1
33) COc1ccc2c(CCN)c[nH]c2c1
  Measles inh: -0.49
34) Cc1ccc(-n2c(C=Cc3cccnc3)nc3ccccc3c2=O)cc1
  Measles inh: -0.33
35) Cc1ccc(S(=O)(=O)C2(C(=O)N3CC4CC(C3)c3cccc(=O)n3C4)CC2)cc1 (configuration not stated)
  Measles inh: 0.97
36) CN(C)c1ccc(C(=O)c2ccc(N(C)C)cc2)cc1
  Measles inh: -0.92
37) Cc1cccc(-n2c(C=Cc3cccc(Br)c3)nc3ccccc3c2=O)c1
  Measles inh: 0.85
38) O=C1CC(Cc2ccccc2)C(=O)N1c1ccc2c(C(F)(F)F)cc(=O)oc2c1 (configuration not stated)
  Measles inh: -1.5
39) O=C(Nc1ccc(Br)cc1C(=O)c1ccccc1Cl)c1ccco1
  Measles inh: 0.41
40) Nc1cc(C(=O)Nc2ccccc2F)ccc1N1CC2CC(C1)c1cccc(=O)n1C2 (configuration not stated)
  Measles inh: 1.2
41) C=C1OC(=O)OC12CC(C)(C)NC(C)(C)C2
  Measles inh: 0.44
42) Clc1ccc(CN2CCNCC2)cc1
  Measles inh: 0.65
43) c1ccc2cc3ncccc3cc2c1
  Measles inh: -0.31
44) CCCCn1c(N)c(C(=O)OCC)c2nc3ccccc3nc21
  Measles inh: -0.67
45) O=[N+]([O-])c1cccc(CN2CCN(Cc3cccc(Br)c3)CC2)c1
  Measles inh: -0.08

Further entries:
#	mol	Measles inh
46	CC1(c2ccccc2)CCN2CCC(C)(c3ccccc3)c3cc([N+](=O)[O-])cc1c32 (configuration not stated)	-0.57
47	O=P(Nc1cccc(F)c1)(Oc1ccccc1Cl)Oc1ccccc1Cl	-0.83
48	COc1ccc(C2SCC(=O)Nc3c2c(-c2ccccc2)nn3-c2ccccc2)cc1OC (configuration not stated)	-0.68
49	CCC(N)C(=O)c1ccc(F)cc1 (configuration not stated)	2.1
50	COc1cc(OC)c(OC)cc1CC1C(=O)N(C)C(=O)N(C)C1=O	0.72
51	COc1cc2c(cc1OC)C(C(=O)Nc1ccc3c(c1)OCCO3)C1CCCCN1C2=O (configuration not stated)	-0.46
52	O=C1CSC(c2ccccc2)c2c(n(C3CCCC3)[nH]c2=O)N1 (configuration not stated)	0.95
53	O=c1c2ccccc2nc(C=Cc2cccc3ccccc23)n1-c1cccc(F)c1	1.4
54	C1CN2C(C3CC3)N2C1 (configuration not stated)	-1.2
55	COc1ccc(C=Cc2nc3ccccc3c(=O)n2-c2cc(Cl)ccc2OC)cc1	-0.03
56	NCCNc1ccc([N+](=O)[O-])c2cccnc12	0.6
57	CN1C(=O)CC2(CNC(=O)C2)C1=O (configuration not stated)	-1.6
58	O=c1c2ccccc2nc(C=Cc2ccccc2)n1-c1ccccc1I	-1.7
59	Cc1ccc(NC(=O)CN2C(=O)CN=C(c3ccccc3Cl)c3cc(Cl)ccc32)cc1F	-0.21
60	COc1cc(C(=O)OC2CC3CCC(C2)N3C)cc(OC)c1OC (configuration not stated)	0.71
61	CCOC(=O)C1C2NC(=S)N(c3ccc(OCC)cc3)C1(C)Oc1ccc(Br)cc12 (configuration not stated)	-0.23
62	Cc1cccc(NC(=O)c2c(O)c3c(n(Cc4ccco4)c2=O)CCCC3)n1	-2.2
63	O=C(CNS(=O)(=O)c1cccs1)N1CC2CC(C1)c1cccc(=O)n1C2 (configuration not stated)	-0.87
64	Cc1c(Cl)c([N+](=O)[O-])nn1CC(=O)Nc1ccc(Cl)cc1C(=O)c1ccccc1	1
65	Cc1nn(-c2ccccc2)c2c1C(c1ccc(Cl)cc1)SCC(=O)N2 (configuration not stated)	-2.2
66	Cc1ccc(CN2C(=O)C(C)N=C(c3ccccc3)c3cc(Cl)ccc32)cc1 (configuration not stated)	1.3
67	O=c1oc2ccccc2c(O)c1C(c1ccsc1)c1c(O)c2ccccc2oc1=O	0.01
68	O=c1c2ccccc2nc(C=Cc2ccccc2F)n1-c1ccc(O)cc1	-0.17
69	O=C(O)c1ccc(N2CC3CC(C2)c2cccc(=O)n2C3)c([N+](=O)[O-])c1 (configuration not stated)	-0.15
70	Cc1nn(-c2ccccc2)c2c1C(c1ccc(OC(C)C)cc1)SCC(=O)N2 (configuration not stated)	-0.49
71	O=C(Nc1ccc2c(C(F)(F)F)cc(=O)oc2c1)c1cc([N+](=O)[O-])nn1Cc1ccccc1	0.8
72	COC(=O)CC1(CC(=O)OC)C(=O)NC(=O)NC1=O	0.36
73	Cc1ccc(NC(=O)CN2C(=O)CN=C(c3ccccc3)c3cc(Cl)ccc32)c(Cl)c1	-0.09
74	O=c1oc2ccccc2c(O)c1C(c1ccc([N+](=O)[O-])o1)c1c(O)c2ccccc2oc1=O	1.7
75	c1cc(C2N3CCCN23)ccn1 (configuration not stated)	0.42
76	CCOC(=O)C1C2NC(=S)N(c3ccccc3C)C1(C)Oc1c(OCC)cccc12 (configuration not stated)	0.62
77	CCN(CC)C(=O)c1ccc(NC(=O)Cn2nc(-c3ccc(C)cc3)c3ccccc3c2=O)cc1	0.25
78	O=c1c2cc(Cl)ccc2nc(C[n+]2ccccc2)n1-c1ccc([N+](=O)[O-])cc1	0.12
79	Cc1nc2cc([N+](=O)[O-])ccc2c(=O)n1-c1ccc(Cl)cc1	-0.05
80	CCc1nc2ccccc2c(=O)n1-c1ccccc1[N+](=O)[O-]	-0.33
81	O=c1c2ccccc2nc(C=Cc2ccccc2F)n1-c1ccccc1F	-0.64
82	CCOC(=O)C1C2NC(=S)N(c3ccccc3)C1(C)Oc1ccc(Br)cc12 (configuration not stated)	-0.39
83	CN1CCN(c2ncnc3ccc(Br)cc23)CC1	-0.66
84	Brc1ccc2c(c1)C1C=CCC1C(c1cccnc1)N2 (configuration not stated)	-0.58
85	CCOC(=O)C1C2NC(=S)N(c3ccc(C)cc3)C1(C)Oc1ccccc12 (configuration not stated)	1.2
86	CSc1ccc(CN2CCN(Cc3ccc(F)cc3)CC2)cc1	-0.12
87	O=[N+]([O-])c1ccc(NCCCN2CCOCC2)c2cccnc12	0.01
88	O=C(c1ccc(N2CC3CC(C2)c2cccc(=O)n2C3)c([N+](=O)[O-])c1)N1CCCCC1 (configuration not stated)	-0.61
89	COC(=O)C1C2c3ccccc3OC1(C)N=C1SCC(=O)N12 (configuration not stated)	0
90	O=c1[nH]ncc(N2CCOCC2)c1Cl	-0.4
91	C=CCOC(=O)C1C2NC(=S)N(c3ccc(F)cc3)C1(C)Oc1c(OC)cccc12 (configuration not stated)	-0.23
92	CN1CCN(Cc2nc3ccc([N+](=O)[O-])cc3c(=O)n2-c2ccccc2F)CC1	-0.44
93	O=c1c2ccccc2nc(C=Cc2ccccc2)n1-c1ccc(Br)cc1	0.77
94	CC(=O)Oc1ccc(OC(C)=O)c2c1C1(Cl)C(Cl)=C(Cl)C2(Cl)C1(Cl)Cl	-1.2
95	CCOC(=O)c1c(N=CC2C(=O)NC(=S)NC2=O)sc(C)c1C	0.93

Some of the compounds tested; the hit share may differ from the screen's.
